Screening data: PubChem, Broad Institute
YB-1 expr inh: YB-1 expression inhibition; U2OS, qRT-PCR YB-1 vs CDIP delta delta Cp, 16 h; stronger effect = higher value; zero = DMSO, each unit about twofold; delta delta Cp (YB-1 minus CDIP) (concentration not given with the values); actives 0.37% (n = 30,000); AID 434959;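 active = delta delta Cp rounded down to an integer at or above 3, about 3 SD of DMSO wells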;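 note: higher means less YB-1 transcript or more CDIP transcript relative to DMSO; stock transfer was 100 nL into about 100 µL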
PD-1 reversal: reversal of PD-1 mediated T-cell inhibition. 29,000 tested, under 10 active. activation, % (test concentration not listed). primary human CD4 T cells, PD-L1 beads, CellTiter-Glo 96 h;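 active = replicate mean of 50% or more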;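 note: 0% = median vehicle wells and 100% = positive control; 100 nL library stock added to about 50 µL; numbers are from one replicate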
MITF inh: blocks MITF activity | inhibition, % (no concentration beside the values) | actives 0.28% (n = 37,000) | AID 2240 | TRPM1 promoter luciferase, luminescence, 24 h;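 active = most replicates at 85% or more, or half of them and the mean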;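 note: human melanocyte line stably carrying TRPM1 promoter luciferase reporter; 0% = vehicle wells and 100% = a positive control; the first replicate is given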
Shh pathway inh: Sonic Hedgehog pathway inhibition. Shh-LIGHT2 Gli-luciferase reporter, 30 h. actives 2.1% (n = 22,000). inhibition, % (no concentration beside the values);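 active = replicate mean of 65% or more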;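 note: pathway switched on by Shh-conditioned medium diluted 1 in 25 in low serum; 100 nL library stock added to about 40 µL; 0% = median of neutral wells and 100% = positive control level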
Active calls of the source: *; . = not tested or not shown.

Structure,YB-1 expr inh,PD-1 reversal,MITF inh,Shh pathway inh
CC(NC(=O)c1ccc(C(C)(C)C)cc1)c1ccccc1 (stereo not drawn),0.098,0.1,-22,-27
Cc1ccc(N(C(C)C(=O)Nc2ccc(I)cc2C)S(C)(=O)=O)cc1C (stereo not drawn),.,1.6,4,.
C[C@H]1CN([C@@H](C)CO)C(=O)c2cccc(NS(=O)(=O)c3ccc(Cl)cc3)c2O[C@@H]1CN(C)S(=O)(=O)c1ccccc1,0.029,0.7,0,-24
C[C@@H]1CN([C@H](C)CO)C(=O)Cc2cc(NC(=O)C3CCCCC3)ccc2O[C@@H]1CN(C)C(=O)NC1CCCCC1,0.19,1.3,-8,10
COc1ccc2nc(SCC(=O)Nc3ccc(I)cc3)[nH]c2c1,.,-1.1,-3,.
C[C@H]1CN([C@@H](C)CO)C(=O)c2cccc(NC(=O)Nc3ccc(F)cc3)c2O[C@H]1CN(C)Cc1ccncc1,-0.44,4.1,3,-25
O=c1[nH]c(=O)c2sc3nc(-c4ccc5c(c4)OCCO5)cc(C(F)(F)F)c3c2[nH]1,.,-0.8,31,.
COc1ccc(NC(=O)C2=C(C)NC(=S)NC2c2cccc([N+](=O)[O-])c2)c(OC)c1 (stereo not drawn),.,-0.6,-10,.
Cc1cc(=O)oc2cc(OC(C)C(=O)NCC3CCCO3)ccc12 (stereo not drawn),.,1.4,0,.
CCC[C@@H]1C[C@@H](C(=O)N[C@@H](C2O[C@H](SC)[C@H](O)[C@@H](O)[C@H]2O)[C@H](C)Cl)N(C)C1 (stereo partly drawn),0.37,2.4,-7,-41
OC[C@H]1O[C@@H](n2cnc3c(NCc4ccco4)ncnc32)[C@H](O)[C@@H]1O,2.6,.,-5,98*
CS(=O)(=O)N(CC(=O)Nc1ccc(I)cc1)Cc1ccccc1,.,-0.4,4,.

Reprinted at random: 5 records from the list
Structure,YB-1 expr inh,PD-1 reversal,MITF inh,Shh pathway inh
C[C@@H]1CN([C@H](C)CO)C(=O)Cc2cc(NC(=O)C3CCCCC3)ccc2O[C@@H]1CN(C)C(=O)NC1CCCCC1,0.19,1.3,-8,10
OC[C@H]1O[C@@H](n2cnc3c(NCc4ccco4)ncnc32)[C@H](O)[C@@H]1O,2.6,.,-5,98*
C[C@H]1CN([C@@H](C)CO)C(=O)c2cccc(NS(=O)(=O)c3ccc(Cl)cc3)c2O[C@@H]1CN(C)S(=O)(=O)c1ccccc1,0.029,0.7,0,-24
CS(=O)(=O)N(CC(=O)Nc1ccc(I)cc1)Cc1ccccc1,.,-0.4,4,.
O=c1[nH]c(=O)c2sc3nc(-c4ccc5c(c4)OCCO5)cc(C(F)(F)F)c3c2[nH]1,.,-0.8,31,.

Going on with the list:
Structure,YB-1 expr inh,PD-1 reversal,MITF inh,Shh pathway inh
C[C@@H]1CCCCO[C@@H](CN(C)C(=O)NC2CCCCC2)[C@@H](C)CN([C@H](C)CO)C(=O)c2cc(NS(=O)(=O)c3cn(C)cn3)ccc2O1,0.012,.,-1,-17
O=C(CS(=O)c1ccc(C(F)(F)F)cc1[N+](=O)[O-])Oc1ccc(C2CCCCC2)cc1 (stereo not drawn),.,-16,-4,.
C/C1=C/CC(=O)C(C)C[C@H]2OC(=O)[C@H](C)C2[C@@H](O)C1 (stereo partly drawn),-0.28,1.9,6,-10
Cc1ccc(S(=O)(=O)N(C)C[C@@H]2Oc3ccc(NS(C)(=O)=O)cc3C(=O)N([C@H](C)CO)C[C@@H]2C)cc1,0.4,-0.6,-3,-1
CC(=O)O[C@@H]1[C@@H](O)[C@H](C)O[C@@H](O[C@H]2[C@@H]3C=CO[C@@H](O[C@@H]4O[C@H](CO)[C@@H](O)[C@H](O)[C@H]4O)[C@@H]3[C@@]3(CO)O[C@@H]23)[C@@H]1OC(=O)/C=C/c1ccc(O)cc1,0.053,-1.1,12,-9
C[C@@H]1CCCCO[C@@H](CN(C)S(C)(=O)=O)[C@@H](C)CN([C@H](C)CO)C(=O)c2cc(NS(=O)(=O)c3cn(C)cn3)ccc2O1,-0.13,0.0,-17,3
O=C(NCc1ccco1)c1ccccc1NC(=O)C1COc2ccccc2O1 (stereo not drawn),.,-0.4,5,.
COc1cc(CO)cc(Br)c1OCc1cccc([N+](=O)[O-])c1,.,0.6,-27,.
COc1ccccc1OCCN1CCN(c2ccccc2)CC1,-0.42,-0.8,3,-24
C[C@H]1CN([C@@H](C)CO)C(=O)Cc2cc(NS(=O)(=O)c3cccs3)ccc2O[C@@H]1CN(C)Cc1ccncc1,-0.24,1.5,3,9
COc1ccc(CN(C)C[C@H]2Oc3c(NS(=O)(=O)c4ccc(C)cc4)cccc3C(=O)N([C@@H](C)CO)C[C@H]2C)cc1,0.1,0.0,-7,-9
Cc1ccc(S(=O)(=O)N(C)C[C@H]2Oc3ccc(NS(C)(=O)=O)cc3CC(=O)N([C@H](C)CO)C[C@H]2C)cc1,-0.82,0.0,-10,.
CCC(C)C(Nc1ncnc2c1oc1ccccc12)C(=O)O (stereo not drawn),.,1.2,17,.
COc1ccc(NC(=O)N(C)C[C@@H]2Oc3c(NS(=O)(=O)c4ccc(C)cc4)cccc3C(=O)N([C@@H](C)CO)C[C@@H]2C)cc1,0.37,-1.7,-3,-5
Cc1cc(C)cc(OCC(=O)Nc2cc(-c3nc4ccc(C)cc4o3)ccc2C)c1,.,-5.5,-30,.
CC(C)NC(=O)Nc1cccc2c1O[C@H](CN(C)C(=O)Nc1ccc3c(c1)OCO3)[C@@H](C)CN([C@@H](C)CO)C2=O,0.35,-0.4,1,-53
C[C@H](CO)N1C[C@H](C)[C@H](CN(C)Cc2ccc(C(=O)Nc3ccccc3N)cc2)Oc2ccc(NC(=O)c3ccncc3)cc2CC1=O,-0.48,-3.3,5,.
COc1ccc(N(CC(=O)Nc2ccc(F)c(F)c2)S(C)(=O)=O)cc1Cl,.,-0.2,-6,.
O=C(NCCN1CCOCC1)c1cnn2c(C(F)F)cc(-c3ccccc3)nc12,.,-4.7,-12,.
CCN1CCN(C(=O)c2ccc(CNS(=O)(=O)c3cccc(OC)c3)cc2)CC1,.,0.9,-3,.
O=C(CSc1nnc(-c2cccc(Br)c2)n1-c1ccccc1)Nc1ccccc1[N+](=O)[O-],.,1.1,12,.
Cc1noc(C)c1S(=O)(=O)Nc1ccc2c(c1)CC(=O)N([C@@H](C)CO)C[C@H](C)[C@H](CN(C)Cc1ccc3c(c1)OCO3)O2,-0.024,.,-3,17
O=[N+]([O-])c1cccc(NC(=S)Nc2nn(Cc3ccc(Cl)c(Cl)c3)cc2Br)c1,.,-1.4,17,.
C[C@@H]1CN([C@H](C)CO)C(=O)c2cc(NC(=O)CCCN(C)C)ccc2O[C@H]1CN(C)Cc1ccc2c(c1)OCO2,-0.44,0.3,-5,-7
CCn1c2ccccc2n2c(SCc3nc4ccccc4[nH]3)nnc12,.,-0.2,4,.
Cc1ccc(S(=O)(=O)Nc2ccc3c(c2)CC(=O)N([C@@H](C)CO)C[C@H](C)[C@H](CN(C)Cc2ccc(-c4ccccc4)cc2)O3)cc1,-0.013,.,26,-8
C[C@@H]1CN([C@H](C)CO)C(=O)Cc2cc(NS(=O)(=O)c3ccc(F)cc3)ccc2O[C@@H]1CN(C)C(=O)Nc1ccc(C(F)(F)F)cc1,0.081,-2.6,-10,-24
O=C(CSc1nc(-c2ccccc2)cs1)Nc1ccccc1,.,-3.2,-6,.
Cc1noc(C)c1NC(=O)Nc1ccc2c(c1)C(=O)N([C@H](C)CO)C[C@@H](C)[C@@H](CN(C)C(=O)Nc1c(C)noc1C)O2,0.33,.,2,-47
C[C@@H]1CN([C@H](C)CO)C(=O)Cc2cc(NC(=O)Cc3cn(C)c4ccccc34)ccc2O[C@H]1CN(C)C(=O)Nc1ccccc1,-0.022,0.4,5,-7
CNCC(O)c1ccc(OC(=O)C(C)(C)C)c(OC(=O)C(C)(C)C)c1 (stereo not drawn),-0.036,0.6,3,7
Cc1cccc(NC(=O)CSc2nnc(-c3cccc(Br)c3)n2-c2ccccc2)c1,.,-9.9,27,.
C[C@H](CO)N1C[C@H](C)[C@@H](CN(C)C)Oc2c(NS(=O)(=O)c3cccs3)cccc2C1=O,-0.017,1.6,-10,-17
Cc1ccccc1NS(=O)(=O)c1cc(C(=O)NCC2CCCO2)ccc1C (stereo not drawn),.,-0.1,-12,.
CC(C)NC(=O)Nc1ccc2c(c1)C(=O)N([C@@H](C)CO)C[C@@H](C)[C@H](CN(C)Cc1ccc(Oc3ccccc3)cc1)O2,-0.56,1.7,2,20
COc1ccc(N(CC(=O)Nc2cccnc2)S(C)(=O)=O)cc1,.,1.8,5,.
Nc1ccc(S(=O)(=O)Nc2cnc3ccccc3n2)cc1,0.13,.,13,-9
C[C@H]1CN([C@@H](C)CO)C(=O)Cc2cc(NC(=O)Nc3ccc(F)cc3)ccc2O[C@H]1CN(C)S(=O)(=O)c1cn(C)cn1,8.1*,1.7,-5,-7
CN(C)CCN(Cc1cccs1)c1ccccn1,0.37,.,-9,22
COc1cc(OC)cc(-c2nnc(SCC(=O)Nc3cc(C(F)(F)F)ccc3Cl)o2)c1,.,1.6,-21,.
C[C@H](CO)N1C[C@H](C)[C@H](CN(C)Cc2ccc(C(F)(F)F)cc2)Oc2ccc(NS(=O)(=O)c3ccccc3)cc2CC1=O,-0.22,1.2,-4,-5
Cc1ccc(S(=O)(=O)N(C)C[C@H]2Oc3ccc(NC(=O)CCC(F)(F)F)cc3C(=O)N([C@H](C)CO)C[C@H]2C)cc1,0.33,-0.2,4,.
C[C@@H]1CN([C@H](C)CO)C(=O)c2cc(N(C)C)ccc2O[C@@H]1CN(C)S(=O)(=O)c1cn(C)cn1,0.018,.,0,-3
C[C@H]1CN([C@@H](C)CO)C(=O)c2cc(NC(=O)CCCCCC(=O)Nc3ccccc3N)ccc2O[C@@H]1CN(C)Cc1ccncc1,0.28,0.2,-8,.
C[C@H]1CN([C@@H](C)CO)C(=O)Cc2cc(NC(=O)C3CC3)ccc2O[C@H]1CN(C)C,0.15,0.3,-10,.
C[C@H]1CN([C@@H](C)CO)C(=O)c2cccc(NS(C)(=O)=O)c2O[C@H]1CN(C)C(=O)Nc1ccc2c(c1)OCO2,0.25,1.5,-5,-4
C[C@@H]1CN([C@@H](C)CO)C(=O)c2cccc(NC(=O)c3ccc(-c4nccs4)cc3)c2O[C@H]1CN(C)S(C)(=O)=O,-0.13,0.8,-5,0
C[C@@H]1CN([C@@H](C)CO)C(=O)c2cc(NC(=O)Cn3cnnn3)ccc2O[C@@H]1CN(C)Cc1ccccc1,-0.049,.,22,-45
COc1ccc(NC(=O)C(C)N(c2ccc(Cl)cc2)S(C)(=O)=O)cc1 (stereo not drawn),.,-0.5,7,.
C/C=C(\C)C(=O)OC1C(OC(=O)/C=C(/C)CC(=O)O)C2(CO)C(O)CC3(C)C(=CCC4C5(C)CCC(OC6OC(C(=O)O)C(O)C(OC7OC(C)C(O)C(OC8OC(CO)C(O)C(O)C8O)C7O)C6O)C(C)(C)C5CCC43C)C2CC1(C)C (stereo not drawn),0.75,-39,98*,97*
CC(C)(Oc1ccc(Cl)cc1)C(=O)Nc1ccccc1-c1nc2ccccc2s1,.,-0.2,-4,.
C[C@H](CO)N1C[C@H](C)[C@H](CN(C)C(=O)Nc2ccc(F)cc2)Oc2c(NC(=O)Nc3ccc(F)cc3)cccc2C1=O,0.37,-0.4,12,-36
C[C@@H]1CN([C@H](C)CO)C(=O)c2cccc(NC(=O)C3CCCCC3)c2O[C@H]1CN(C)C(=O)Nc1ccc2c(c1)OCO2,0.15,-0.7,-8,-12
Cc1ccc(S(=O)(=O)N(C)C[C@H]2Oc3c(NS(=O)(=O)c4cn(C)cn4)cccc3C(=O)N([C@@H](C)CO)C[C@@H]2C)cc1,0.28,.,1,5
C[C@@H]1CN([C@H](C)CO)C(=O)c2cccc(NC(=O)Nc3ccccc3)c2O[C@H]1CN(C)S(=O)(=O)c1ccc(Cl)cc1,0.021,0.4,-19,9
Cc1cc(C)c(NC(=O)CN(c2ccc(C)c(C)c2)S(C)(=O)=O)c(C)c1,.,0.7,0,.
CC(C)NC(=O)Nc1cccc2c1O[C@@H](CN(C)S(=O)(=O)c1ccccc1)[C@H](C)CN([C@H](C)CO)C2=O,0.039,0.2,-11,-14
CN(CC(=O)O)S(=O)(=O)c1ccc(F)cc1,.,2.8,1,.
C[C@@H]1CCCCO[C@@H](CN(C)Cc2ccc3c(c2)OCO3)[C@@H](C)CN([C@H](C)CO)C(=O)c2cc(NC(=O)Nc3ccc4c(c3)OCO4)ccc2O1,-0.47,0.7,9,68*
C=CCN(C(C)=O)c1nc(C)c(Br)c(OC)n1,0.21,0.9,8,7

Not all compounds are listed. The share of hits here may be higher or lower than overall.
